PMP22 txn: PMP22 gene transcription modulation; Potency, µM (titrated, usually from 57.5 µM), for inactives: at the highest dose activity change, negative = inhibition, hits mostly inhibitors; S16 Pmp22-F2sN Schwann cells (luciferase reporters placed in the Pmp22 gene), FLuc/NLuc coincidence luminescence, 24 h; AID 1508649; 2% of 43,000 active; active = clear falling dose curves in both reporters; inconclusive = both reporters move, but less clearly or upward; inactive = either reporter flat; the % is the NLuc reporter signal; also: % is scaled to controls: 0 for no effect and ±100 for the full control effect; some results filed as inactive show a strong effect at the top dose
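S16(c9) Schwann cells with FLuc/NLuc coincidence reporter in the Pmp22 3' UTR; compounds pin-transferred, 24 h at 37C. Dual-luciferase read: FLuc first, then NLuc after Stop&Glo, each 10 min at room temperature.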
HTT promoter inh: inhibitors of huntingtin promoter activity | HEK293 HTT promoter firefly luciferase reporter (activity 0% = vehicle and -100% = no light), 24 h | Potency, µM (series often up to 57.5 µM), without a hit: at the highest dose activity change, negative = inhibition, usual class: inhibitors | 0.93% of 48,000 active; active = well fitted inhibition curve with a large enough effect; inconclusive = small, poorly fitted or top-dose-only effect; inactive = no such curve, though single readings can be large or run the other way; also: nearly all actives have a fitted effect of over 50% in size
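Firefly luciferase readout (Dual-Glo, 10 min RT) after 24 h, 37 °C compound exposure (final up to 57.5 uM) of HEK293 reporter cells cultured 24 h beforehand; PTC124 at 50 uM final as control inhibitor; activity scaled vehicle 0%, zero RLU -100%.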
* marks the source's active call; other numbers are inactive results; ? = inconclusive; . = no result given; [ ] = remark or other dose. Potency is read from the fitted curve at half-maximal effect.

Every second line gives: HTT promoter inh, PMP22 txn
> CC1=C(C(=O)Nc2ccccc2)C(c2cccs2)n2nc(SCc3ccccc3)nc2N1 (centres undefined)
  -4%, 0%
> CC(C)c1ccc(NC(=O)CCCc2nc(-c3ccc(Cl)cc3)no2)cc1
  0%, -13%
> COc1cc(Cl)c(C)cc1NC(=O)c1cnn(-c2ccc(F)cc2F)c1C1CCN(C(=O)OC(C)(C)C)CC1
  -22%, -21%
> CCc1cccc(NC(=O)CCc2c(C)nc3c(c2C)c(=O)n(C)c(=O)n3C)c1
  -20%, ?
> CCC1CN(C(=O)N2CCC(C(=O)NCCCc3ccccc3)CC2)c2ccccc2O1 (centres undefined)
  -25%, -22%
> COc1ccc(C)cc1-n1nnc(S(=O)(=O)c2ccc(C)cc2)c1C
  -21%, ?
> C[C@]12C=CC(=O)C=C1CC[C@@H]1[C@@H]2C(=O)C[C@@]2(C)[C@H]1CC[C@]2(O)C(=O)CO
  -7%[25.2 µM], .
> Cc1ccc(CCNC(=O)c2cc3c(-c4ccccc4F)nn(C)c3s2)cc1
  ?, -15%
> CCOc1cc2[nH]c(=O)n(CCCC(=O)NCc3ccc(OC)cc3)c(=O)c2cc1OCC
  -6%, 22%
> Cc1ccc(-n2ncc(C(=O)NCc3ccccn3)c2C2CCN(C(=O)OC(C)(C)C)CC2)c(C)c1
  -30%, -51%
> CCOc1ccc(C2=C(C(=O)CC)Sc3nncn3N2C(=O)CC)cc1
  ?, ?
> Cc1cccc(NC(=O)CN2C(=O)CCn3nc(-c4cccn4C)cc32)c1C
  -3%, -21%
> COc1ccccc1CNC(=O)Cn1ncn2c(cc3sccc32)c1=O
  8%, 1%
> O=C(CSCc1ccccc1Cl)N1CCN(c2ccc(Cl)cc2)CC1
  -10%, -5%
> Cc1ccc(CNC(=O)c2c(O)nc3cc(C)ccn3c2=O)cc1
  -2%, -13%
> Cc1cccc(C)c1OCCn1c(C2CC(=O)N(c3cccc(Cl)c3)C2)nc2ccccc21 (centres undefined)
  ?, ?
> COc1ccc(S(=O)(=O)n2nc(C)c(S(=O)(=O)N3CCCCCC3)c2C)cc1C
  -4%, -4%
> COc1ccc(OC)c(CNC(=O)Nc2cn(CC(C)C)c(=O)c3ccccc23)c1
  -26%, -8%
> CC(CCO)Nc1nc2c(c(=O)n(C)c(=O)n2C)n1Cc1ccc(Br)cc1 (centres undefined)
  -25%, ?
> O=C(NCCCN1CCN(c2ccccc2F)CC1)c1ccc2nc(N3CCCCC3)sc2c1
  ?, ?
> Cc1cccc(CCNC(=O)c2nn(C)c3c2CSc2ccccc2-3)c1
  -8%, -6%
> CCCSc1nc2sc3c(c2c(=O)n1-c1cccc(Br)c1)CC(C)(C)OC3
  5%, -17%
> CCn1cc(CCC(=O)NCc2ccc(C)cc2)c2ccccc21
  -15%, -6%
> COc1cc(Cl)c(C)cc1NC(=O)c1nn(-c2ccc(C)cc2)c(=O)n(C)c1=O
  9%, -5%
> Cc1c(Cl)cccc1NC(=O)C1CCN(c2ncnc3c2nc2n3CCCCC2)CC1
  -3%, -9%
> Cc1ccc(S(=O)(=O)Cc2ccc(C(=O)N3CCN(c4cccc(C)c4C)CC3)o2)cc1
  ?, 14µM*
> CCOc1ccc(-c2nnc(Nc3ccc(S(N)(=O)=O)cc3)c3ccccc23)cc1
  -8%, -8%
> COc1cccc(NC(=O)c2sc3nc4n(c(=O)c3c2C)CCC4)c1
  80%[activator], -12%
> CCOC(=O)C1CCN(S(=O)(=O)c2cc(-c3onc(C)c3C)ccc2OC)CC1
  -28%, ?
> CC(C)CCNC(=O)CN1C(=O)CSc2ccc(S(=O)(=O)N3CCCCC3)cc21
  -14%, 10%
> O=C(CCS(=O)(=O)c1cc(Br)cc2c1N(C(=O)C1CC1)CC2)NCc1ccccc1Cl
  -4%, -5%
> O=C(COc1ccccc1)Nc1nnc(S(=O)(=O)Nc2ccccc2)s1
  2%, 5%
> Cc1ccc(N2C(=O)CSC23C(=O)N(CC(=O)NC2CCCCC2)c2ccccc23)cc1 (centres undefined)
  -13%, 1%
> CC1CCCN(CCCNC(=O)CN2C(=O)CSc3ccc(S(=O)(=O)N4CCOCC4)cc32)C1 (centres undefined)
  -11%, -31%
> COc1cc(C)ccc1OCCSc1nc2ccc(NC(=O)c3ccc(C)cc3)cc2s1
  2%, -8%
> CCOC(=O)c1scc(-c2ccccc2)c1S(=O)(=O)Nc1ccc(N(C)C)cc1
  ?, ?
> CC(=O)N1CCc2cc(S(=O)(=O)NC(CC(C)C)C(=O)NCCc3ccccc3)ccc21 (centres undefined)
  -9%, -2%
> COc1ccc(Br)cc1C1CC(=O)Nc2c1c(C)nn2-c1nc(C)cc(C)n1 (centres undefined)
  -16%, ?
> COc1ccc(CC(=O)Nc2ccc3nc(Nc4cccc(Cl)c4)cc(C)c3c2)cc1
  ?, ?
> CCCCCCCCCCCCCCCCCCCCCCO
  -1%, .
> Fc1ccc(C(c2ccc(F)cc2)N2CCN(C/C=C/c3ccccc3)CC2)cc1
  -19%, .
> COC(=O)c1ccccc1NC(=O)Nc1nnc(N2CCC(C)CC2)s1
  3%, -6%
> Cc1ccc(S(=O)(=O)c2cnc(SCC(=O)Nc3cc(C)cc(C)c3)nc2N)cc1
  ?, -30%
> CCOc1cc(C2NC(=O)c3c(sc4c3CCN(C)C4)N2)ccc1OC(=O)c1ccc(F)cc1 (centres undefined)
  13%, 1%
> CC1=C(C(=O)Nc2cc(Cl)ccc2C)C(c2ccccc2F)n2ncnc2N1 (centres undefined)
  -5%, 2%
> CCOc1ccc(CNC(=O)Cn2c(=O)c3cccn3c3ccc(F)cc32)cc1OC
  -2%, -5%
> CC(=O)c1ccc(N2CCN(c3ncnc4c3c(-c3ccccc3)cn4-c3ccc(Cl)cc3)CC2)cc1
  -17%, -5%
> CCCOc1cccc(C(=O)N(Cc2cc(OC)c(OC)c(OC)c2)C2CCS(=O)(=O)C2)c1 (centres undefined)
  -15%, -15%
> CCc1ccc(NC(=O)CSc2nccn2C2CCCC2)cc1
  -14%, -28%
> COc1cc(NC(=O)CCS(=O)(=O)c2ccc3c(c2)n(C)c(=O)c(=O)n3C)cc(OC)c1
  3%, -11%
> CCOc1ccccc1C(=O)Oc1c(Sc2ccccc2)c(C)nn1C(C)(C)C
  -3%, -2%
> CCOC(=O)c1c(NC(=O)c2cc3ccccc3c(=O)o2)sc2c1CCCC2
  -14%, -4%
> CCOc1ccc(CC(=O)Nc2nnc3n2CCS3)cc1
  3%, -42%
> CCOC(=O)c1cc(-c2ccc(OC)cc2)n(CCC(=O)NCc2ccccc2OC)c1C
  ?, 7%
> Nc1c(CC(=O)O)cccc1C(=O)c1ccc(Br)cc1
  17%, .
> Cc1cc(C)c(NC(=O)Cn2c(=O)n(CC(=O)NCCc3ccccc3)c(=O)c3ccccc32)c(C)c1
  -5%, -16%
> CC(C)(Oc1ccc(Br)cc1)C(=O)Nc1cc(-c2nc3ccccc3[nH]2)ccc1Cl
  -4%, -31%
> CCc1ccc(-n2c(=O)c3ccccc3n(Cc3ccccc3C#N)c2=O)cc1
  -10%, -17%
> CC1=C(C(=O)Nc2ccccc2)C(c2ccncc2)n2nc(SCc3ccccc3)nc2N1 (centres undefined)
  -8%, ?
> CCc1c(CN2CCN(c3ccc(F)cc3)CC2)csc1C
  -16%, 1%

Retrieved by structure from above:
Every second line gives: HTT promoter inh, PMP22 txn
> CCOc1ccc(CNC(=O)Cn2c(=O)c3cccn3c3ccc(F)cc32)cc1OC
  -2%, -5%
> CC1=C(C(=O)Nc2ccccc2)C(c2ccncc2)n2nc(SCc3ccccc3)nc2N1 (centres undefined)
  -8%, ?
> COC(=O)c1ccccc1NC(=O)Nc1nnc(N2CCC(C)CC2)s1
  3%, -6%
> CC(C)(Oc1ccc(Br)cc1)C(=O)Nc1cc(-c2nc3ccccc3[nH]2)ccc1Cl
  -4%, -31%

More compounds
Every second line gives: HTT promoter inh, PMP22 txn
> Cc1ccc(-c2nnc(Nc3cccc(O)c3)c3ccccc23)cc1S(=O)(=O)N1CCN(C)CC1
  ?, ?
> Cc1ccccc1NC(=O)CSc1nnc(-c2cccc(Cl)c2)o1
  19%, -2%
> COc1ccc(/C=C\c2onc(C)c2S(=O)(=O)N2CCC(C(=O)Nc3ccc(Cl)cc3)CC2)cc1
  ?, -7%
> Cc1ccc(-c2cc(-c3ccc4c(c3)NC(=O)CO4)nc3c2COc2ccc(C)cc2-3)cc1
  -12%, -2%
> Cc1ccc(-n2c(SCC(=O)N3CCCc4ccccc43)nc3c([nH]c4ccccc43)c2=O)cc1
  13%, -26%
> CCOC(=O)C1=C(CN2CCN(c3cc(C)ccc3C)CC2)NC(=O)NC1c1ccccc1 (centres undefined)
  ?, ?
> CCn1cc2nc(SCc3cccc(Cl)c3)n(Cc3ccc(C)cc3)c(=O)c2n1
  -11%, ?
> COc1cc2c(cc1NC(=O)C(C)Oc1ccc(Cl)cc1Cl)oc1ccccc12 (centres undefined)
  -3%, ?
> Cn1c(/C(C#N)=C/c2ccc(C(F)(F)F)cc2)nc2ccccc21
  47%[activator], -142%
> Cc1ccc2c(=O)cc(CSCC(=O)Nc3nnc(C)s3)[nH]c2c1
  8%, 0%
> CC(C)c1ccc(C2N3CC4(C)CN2CC(c2ccccc2)(C3)C4=O)cc1 (centres undefined)
  -16%, -5%
> CCN(CC)CCCNC(=O)CSc1nc2nc(C)c(Cc3ccccc3C)c(C)n2n1
  -8%, -7%
> COc1ccc(NC(=O)N2CCc3c([nH]c4ccc(OC)cc34)C2c2ccc(OC)cc2)cc1 (centres undefined)
  ?, -9%
> CCCCN(CC)CCCNC(=O)c1ccc2c(c1)N(Cc1ccc(C)cc1)C(=O)c1ccccc1S2
  ?, ?
> Cc1ccc(-n2c(=O)c3sc4ccccc4c3n(C)c2=O)cc1F
  -4%, 4%
> CCCCN(CC)CCNC(=O)Cn1cnc2sc(C)c(S(=O)(=O)N3CCC(C)CC3)c2c1=O
  -11%, -5%
> CCc1ccccc1NC(=O)Nc1cc(C(=O)NCc2ccccc2OC)ccc1N1CCCC1
  -9%, ?
> COc1ccc(C2CC(=O)c3cc(-c4nc(-c5ccc(Cl)cc5)cs4)c(=O)[nH]c3C2)cc1 (centres undefined)
  -15%, ?
> COc1cc(OC)c(NS(=O)(=O)c2cc3c(cc2C)N(C(C)=O)CCO3)cc1Cl
  -6%, -11%
> COCCCNc1nc(NCc2ccc(C)cc2)c2cnn(C)c2n1
  ?, -9%
> CCc1ccc(OCC(=O)N(Cc2ccc(C)o2)C2CCS(=O)(=O)C2)cc1 (centres undefined)
  -5%, -9%
> O=C(NC1CCCCC1)c1ccc(CSc2nc3cccnc3n2Cc2ccc(F)cc2)cc1
  2%, -11%
> O=C(CCCn1c(=O)c2cccn2c2cccnc21)NCc1ccccc1Br
  5%, -22%
> O=C1NC(=O)C(=Cc2ccc(-c3ccc(F)cc3)o2)S1
  -18%, .
> COc1cccc(NC(=O)Cn2c(=O)n(-c3ccccc3)c(=O)c3ccc(C(=O)NCc4ccc5c(c4)OCO5)cc32)c1
  -22%, ?
> CCOc1ccc(CCNC(=O)c2ccc(CS(=O)(=O)Cc3ccccc3Cl)o2)cc1OCC
  ?, ?
> CCOC(=O)c1ccc(N2C(=O)c3n[nH]c(C)c3C2c2ccc(O)c(OC)c2)cc1 (centres undefined)
  4%, 7.5µM*
> Cc1cc2c(cc1S(=O)(=O)N(CCO)Cc1ccccc1)OCC(=O)N2
  8%, -11%
> CCc1cccc(C)c1NC(=O)C(CC)Sc1nc2ccncc2[nH]1 (centres undefined)
  -21%, 7%
> CCCCOc1ccc(C2C(C(=O)Nc3ccccc3OC)=C(C)Nc3nnnn32)cc1OC (centres undefined)
  -16%[11.5 µM], 3%
> Cc1ccc(C(=O)Nc2ccccc2C(=O)OCc2cc(=O)n3nc(C(C)C)sc3n2)cc1
  -8%, -8%
> CCOc1ccc(NC(=O)Cn2nnc(-c3nc(-c4ccncc4)no3)c2N)cc1
  4%, 5%
> CCOC(=O)c1[nH]c(C)c(CCC(=O)N2CCN(c3cc(Cl)ccc3C)CC2)c1C
  ?, ?
> COc1ccccc1C(=O)Nc1ccc(OCc2cc(=O)n3ccsc3n2)cc1
  6%, -21%
> CC1=C(C(=O)OCc2ccc(C)cc2)C(c2c(Cl)cccc2Cl)CC(=O)N1 (centres undefined)
  ?, -10%
> Cc1oc2ncn(C)c(=O)c2c1C(=O)NCc1ccccc1
  -21%, 5%
> COc1ccc(NS(=O)(=O)c2ccc3c(c2)CC(C)N3C(=O)C2CCC2)cc1OC (centres undefined)
  1.8µM*, 3µM*
> Cc1ccc(C)c(CSc2nnc(C)n3c2cc2sccc23)c1
  -22%, -3%
> CC(=O)N1CCc2cc(Br)cc(S(=O)(=O)N3CCN(c4cccc(C(F)(F)F)c4)CC3)c21
  -5%, 8%
> CCN(C(=O)CSc1nnc(C)n2c1cc1occc12)c1ccccc1
  9%, ?
> O=C(NCC1CCCO1)c1c[nH]c2ccc(S(=O)(=O)Nc3ccc(F)cc3F)cc2c1=O (centres undefined)
  22%, -3%

From PubChem BioAssay

Random draw from the library; any-hit rate near 2.6%.
